HIV Env fusion: inhibitors of HIV Env-mediated cell fusion; HeLa-JRFL Env/CEM21 cell fusion, luciferase; inhibition, % at 12.3 µM; hit rate 1.1% among 360,000;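 active = mean replicate inhibition score of at least 50 and every replicate individually at or above 50; inconclusive = only one of the two criteria met; inactive = mean below 50 and not all replicates reaching 50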;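 note: 0% = plate neutral controls and 100% = maraviroc near 300 nM; one replicate is shown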
Yeast UUG start: alters start codon recognition fidelity in yeast | activity score, % at 18.7 µM | hit rate 0.13% among 350,000 | AID 602363 | S. cerevisiae UUG-firefly luciferase reporter, luminescence/redox ratio;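 active = replicate mean at a twofold rise or more, about +100% in these data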;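 note: firefly luciferase made from a UUG start codon reports start codon fidelity; reporter light over untreated wells divided by growth signal over untreated wells; some hits fall short of that in this replicate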
* = called active by the depositor; ? = inconclusive; [ ] = dose if it differs, or a comment. This is a subset; the hit share may differ from the screen's.

SMILES	HIV Env fusion	Yeast UUG start
COc1ccc(NC(=O)Nc2ccc3c(c2)[C@H]2C[C@H](CC(=O)NCc4ccncc4)O[C@@H](CO)[C@H]2O3)cc1	-10[16.7 µM]	-10
CCC(=O)Nc1ccc2c(c1)C(=O)N(C)C[C@H](OC)[C@@H](C)CN(C(=O)c1cccnc1)[C@@H](C)CO2	0[16.7 µM]	-8
C[C@@H]1CN([C@H](C)CO)C(=O)c2cc(NC(=O)c3ccccc3)ccc2O[C@@H](C)CCCCO[C@H]1CN(C)C(=O)Cc1ccccc1	-16[16.7 µM]	1
C[C@@H]1CN([C@H](C)CO)S(=O)(=O)c2ccc(-c3ccccc3)cc2O[C@H]1CN(C)C	2[16.7 µM]	-12
C[C@@H]1CN([C@@H](C)CO)C(=O)c2cc(NS(=O)(=O)c3ccc(F)cc3)ccc2O[C@H]1CN(C)S(C)(=O)=O	-12[16.7 µM]	-1
O=C(c1ccccc1)N1Cc2ccccc2[C@H]2OC(c3ccc(OCCCO)cc3)=N[C@@]2(CCS(=O)(=O)c2ccccc2)C1=O	12[16.7 µM]	-15
COCC(=O)N1[C@H](CO)[C@H](c2ccc(C3=CCCCC3)cc2)[C@@H]1C#N	-14[16.7 µM]	9
COc1ccc(S(=O)(=O)N2C[C@H](O)COC[C@H]3O[C@@H](CC(=O)NCc4ccc(Cl)c(Cl)c4)CC[C@@H]32)cc1	13[16.7 µM]	1
C[C@H]1CN([C@@H](C)CO)C(=O)Cc2cc(NC(=O)Cn3cnnn3)ccc2O[C@@H]1CN(C)S(=O)(=O)c1cn(C)cn1	1[16.7 µM]	-7
CO[C@H]1CN(C)C(=O)c2cc(NC(C)=O)ccc2OC[C@@H](C)N(Cc2cccc(F)c2)C[C@H]1C	4[16.7 µM]	27
COc1cccc(S(=O)(=O)N2C[C@@H](O)COC[C@H]3O[C@@H](CC(=O)NCCCN4CCOCC4)CC[C@@H]32)c1	-17[16.7 µM]	-3
C[C@H]1CN([C@@H](C)CO)C(=O)c2cccc(NC(=O)C3CCOCC3)c2O[C@H]1CN(C)Cc1ccccc1	19[16.7 µM]	-4
COc1ccccc1C#Cc1ccc([C@H]2[C@@H](CO)N(C(=O)C3CCCCC3)[C@H]2C#N)cc1	-2[16.7 µM]	-2
Cc1noc(C)c1S(=O)(=O)Nc1ccc2c(c1)CC(=O)N([C@H](C)CO)C[C@H](C)[C@@H](CN(C)S(=O)(=O)c1cn(C)cn1)O2	2[16.7 µM]	13
C[C@@H]1CN([C@@H](C)CO)C(=O)c2cccc(NC(=O)c3nc4ccccc4s3)c2O[C@H]1CN(C)S(=O)(=O)c1ccc(F)cc1	-54[16.7 µM]	5
COc1cccc(NC(=O)C[C@H]2CC[C@@H]3[C@@H](COc4ccc(NC(C)=O)cc4C(=O)N3C)O2)c1	-17[16.7 µM]	19
CC(C)C#Cc1ccc([C@H]2[C@@H](C#N)N(C(=O)c3ccccn3)[C@@H]2CO)cc1	-32[16.7 µM]	11
CN1C(=O)c2cc(NC(=O)c3ccc4c(c3)OCO4)ccc2OC[C@@H]2O[C@@H](CC(=O)O)CC[C@H]21	7[16.7 µM]	-1
C[C@H]1CN([C@@H](C)CO)C(=O)Cc2cc(NC(=O)Nc3ccc4c(c3)OCO4)ccc2O[C@@H]1CN(C)S(=O)(=O)c1cccs1	10[16.7 µM]	-14
C[C@H](CO)N1C[C@H](C)[C@H](CN(C)S(=O)(=O)c2ccc(F)cc2)OCCCC[C@H](C)Oc2ccc(NC(=O)CCCN(C)C)cc2C1=O	-2[16.7 µM]	36

Single records, as listed above:
Shown for C[C@@H]1CN([C@H](C)CO)C(=O)c2cc(NC(=O)c3ccccc3)ccc2O[C@@H](C)CCCCO[C@H]1CN(C)C(=O)Cc1ccccc1 : HIV Env fusion = -16[16.7 µM]; Yeast UUG start = 1
Shown for CC(C)C#Cc1ccc([C@H]2[C@@H](C#N)N(C(=O)c3ccccn3)[C@@H]2CO)cc1 : HIV Env fusion = -32[16.7 µM]; Yeast UUG start = 11

More entries.
SMILES	HIV Env fusion	Yeast UUG start
Cc1ccc(S(=O)(=O)N[C@@H]2CC[C@@H](CCNC(=O)C3CCCC3)O[C@H]2CO)cc1	-7[16.7 µM]	24
COCC#Cc1cnc2c(c1)C(=O)N([C@@H](C)CO)C[C@@H](C)[C@H](CN(C)C(=O)C1CCCCC1)O2	4[16.7 µM]	15
C[C@@H]1CN([C@H](C)CO)C(=O)c2cc(-c3ccccc3)cnc2O[C@@H]1CN(C)C(=O)NC1CCCC1	-9[16.7 µM]	-3
COc1ccccc1-c1ccc2c(c1)O[C@@H](CN(C)S(=O)(=O)c1ccc(C)cc1)[C@@H](C)CN([C@@H](C)CO)S2(=O)=O	17[16.7 µM]	-12
C[C@@H]1CCCCO[C@@H](CN(C)Cc2ccc(C(=O)O)cc2)[C@@H](C)CN([C@H](C)CO)C(=O)c2cc(NS(=O)(=O)c3cccs3)ccc2O1	-18[16.7 µM]	-5
C[C@H](CO)N1C[C@H](C)[C@@H](CN(C)Cc2cncnc2)Oc2cc(-c3ccncc3)ccc2S1(=O)=O	6[16.7 µM]	-6
CC(=O)N(C)C[C@@H]1Oc2ncc(C#Cc3cccc(F)c3)cc2C(=O)N([C@@H](C)CO)C[C@@H]1C	13[16.7 µM]	13
CC(C)NC(=O)N(C)C[C@@H]1Oc2ncc(-c3ccc(C(=O)N(C)C)cc3)cc2C(=O)N([C@@H](C)CO)C[C@H]1C	-35[16.7 µM]	4
COc1ccc(NC(=O)N(C)C[C@H]2Oc3ncc(C4=CCCC4)cc3C(=O)N([C@@H](C)CO)C[C@H]2C)cc1	5[16.7 µM]	7
C[C@H](CO)N1C[C@H](C)[C@H](CN(C)C(=O)Nc2ccc(F)cc2)Oc2ccc(NC(=O)Nc3ccc(F)cc3)cc2C1=O	-9[16.7 µM]	0
CC(C)NC(=O)Nc1ccc2c(c1)C(=O)N([C@@H](C)CO)C[C@H](C)[C@@H](CN(C)C(=O)Nc1ccc3c(c1)OCO3)O2	4[16.7 µM]	-11
C[C@@H]1CN([C@@H](C)CO)C(=O)Cc2cc(NS(=O)(=O)c3ccc(F)cc3)ccc2O[C@@H]1CN(C)C(=O)Nc1ccc(F)cc1	-13[16.7 µM]	11
Cc1ccc(S(=O)(=O)Nc2ccc3c(c2)C(=O)N([C@@H](C)CO)C[C@H](C)[C@H](CN(C)C(=O)C2CCCCC2)OCCCC[C@H](C)O3)cc1	-58[16.7 µM]	8
C[C@H]1CN([C@@H](C)CO)C(=O)Cc2cc(NC(=O)Nc3cccc4ccccc34)ccc2O[C@H]1CN(C)S(=O)(=O)c1ccc(Cl)cc1	62*[16.7 µM]	0
Cc1ccc(S(=O)(=O)N[C@@H]2CC[C@H](CCNC(=O)c3ccc4c(c3)OCO4)O[C@H]2CO)cc1	-16[16.7 µM]	6
COc1cccc(-c2cn(CC[C@H]3CC[C@@H](NC(=O)CC4CC4)[C@H](CO)O3)nn2)c1	5[16.7 µM]	-3
C[C@H](CO)N1C[C@H](C)[C@H](CN(C)Cc2ccc(Oc3ccccc3)cc2)Oc2ccc(NC(=O)c3ccncc3)cc2C1=O	-10[16.7 µM]	2
C[C@@H]1CN([C@@H](C)CO)C(=O)Cc2cc(NC(=O)CCCCCC(=O)Nc3ccccc3N)ccc2O[C@@H]1CN(C)S(=O)(=O)c1cccs1	-2[16.7 µM]	7
COC(=O)C[C@H]1C[C@@H]2c3cc(NC(=O)NC4CCCCC4)ccc3O[C@@H]2[C@@H](CO)O1	-7[16.7 µM]	-10
O=C(C[C@@H]1C[C@H]2c3cc(NC(=O)C4CCOCC4)ccc3O[C@H]2[C@H](CO)O1)NCc1ccccn1	3[16.7 µM]	-6
C[C@H](CO)N1C[C@H](C)[C@@H](CN(C)C(=O)Nc2ccc(F)cc2)OCCCC[C@H](C)Oc2ccc(NS(C)(=O)=O)cc2C1=O	-26[16.7 µM]	14
CC(C)NC(=O)N(C)C[C@@H]1OCCCC[C@@H](C)Oc2ccc(NC(=O)NC3CCCCC3)cc2C(=O)N([C@@H](C)CO)C[C@@H]1C	-10[16.7 µM]	10
CNC(=O)C[C@H]1CC[C@@H]2[C@@H](COc3ccc(NC(=O)c4cscn4)cc3C(=O)N2C)O1	9[16.7 µM]	-5
N#C[C@H]1[C@@H](c2ccc(C3=CCCCC3)cc2)[C@@H](CO)N1C(=O)C1CCOCC1	10[16.7 µM]	25
C[C@H]1CN([C@@H](C)CO)S(=O)(=O)c2ccc(-c3cccnc3)cc2O[C@@H]1CN(C)C	-3[16.7 µM]	-18
O=C(C[C@H]1CC[C@H](NC(=O)c2ccc3c(c2)OCO3)[C@H](CO)O1)NCc1ccc(Cl)cc1	13[16.7 µM]	3
C[C@@H]1CN([C@@H](C)CO)C(=O)Cc2cc(NC(=O)Nc3cccc4ccccc34)ccc2O[C@@H]1CN(C)CC1CC1	-7[16.7 µM]	0
COc1ccc(S(=O)(=O)N(C)C[C@H]2Oc3c(NC(=O)C4CC4)cccc3C(=O)N([C@H](C)CO)C[C@H]2C)cc1	-8[16.7 µM]	3
CC(=O)N(C)C[C@@H]1Oc2ncc(-c3cccc(C#N)c3)cc2C(=O)N([C@@H](C)CO)C[C@H]1C	20[16.7 µM]	2
C[C@H]1CN([C@@H](C)CO)C(=O)c2cc(C#CC3(O)CCCC3)cnc2O[C@@H]1CN(C)S(=O)(=O)c1ccccc1	-4[16.7 µM]	-1
CO[C@@H]1CN(C)C(=O)c2ccc(NC(C)=O)cc2OC[C@@H](C)N(S(C)(=O)=O)C[C@H]1C	4[16.7 µM]	-1
CCS(=O)(=O)N[C@H]1CC[C@H](CC(=O)NCc2ccc(Cl)cc2)O[C@H]1CO	?	0
CC(=O)N(C)C[C@H]1Oc2cc(C#CC3CC3)ccc2S(=O)(=O)N([C@@H](C)CO)C[C@@H]1C	11[16.7 µM]	-6
C[C@@H]1CN([C@H](C)CO)C(=O)c2cc(-c3cccnc3)cnc2O[C@@H]1CN(C)C(=O)C1CCC1	-103[16.7 µM]	-15
C[C@H]1CN([C@@H](C)CO)C(=O)Cc2cc(NC(=O)C3CC3)ccc2O[C@@H]1CN(C)C(=O)Nc1ccc2c(c1)OCO2	6[16.7 µM]	26
COc1ccc(NC(=O)N[C@H]2C=C[C@H](CC(=O)NC3CCC3)O[C@@H]2CO)cc1	-1[16.7 µM]	0
C[C@@H]1CN([C@H](C)CO)C(=O)c2cc(C3=CCCCC3)cnc2O[C@H]1CN(C)C(=O)c1ccccn1	-54[16.7 µM]	-6
CO[C@@H]1CN(C)C(=O)c2ccc(NC(C)=O)cc2OC[C@@H](C)N(Cc2cccc(F)c2)C[C@H]1C	-19[16.7 µM]	10
C[C@H](CO)N1C[C@H](C)[C@@H](CN(C)Cc2ccncc2)Oc2cc(-c3ccccc3F)ccc2S1(=O)=O	38[16.7 µM]	-8
C[C@H](CO)N1C[C@H](C)[C@@H](CN(C)Cc2ccc(Oc3ccccc3)cc2)Oc2ccc(NS(=O)(=O)c3ccc(F)cc3)cc2CC1=O	7[16.7 µM]	-2

Brought forward from above: 4 entries; new compounds follow.
SMILES	HIV Env fusion	Yeast UUG start
C[C@@H]1CN([C@H](C)CO)C(=O)c2cc(C3=CCCCC3)cnc2O[C@H]1CN(C)C(=O)c1ccccn1	-54[16.7 µM]	-6
CO[C@@H]1CN(C)C(=O)c2ccc(NC(C)=O)cc2OC[C@@H](C)N(Cc2cccc(F)c2)C[C@H]1C	-19[16.7 µM]	10
C[C@H](CO)N1C[C@H](C)[C@@H](CN(C)Cc2ccncc2)Oc2cc(-c3ccccc3F)ccc2S1(=O)=O	38[16.7 µM]	-8
C[C@H](CO)N1C[C@H](C)[C@@H](CN(C)Cc2ccc(Oc3ccccc3)cc2)Oc2ccc(NS(=O)(=O)c3ccc(F)cc3)cc2CC1=O	7[16.7 µM]	-2
C[C@@H](NC(=O)C[C@@H]1C=C[C@H](NC(=O)CN2CCOCC2)[C@H](CO)O1)c1ccccc1	-9[16.7 µM]	5
C[C@@H]1CN([C@@H](C)CO)C(=O)c2cc(N(C)C)ccc2O[C@@H]1CN(C)S(=O)(=O)c1ccccc1	15[16.7 µM]	7
O=C(C[C@H]1C=C[C@H](NC(=O)C2CC2)[C@H](CO)O1)NCc1ccccc1Cl	-9[16.7 µM]	-14
C[C@H](CO)N1C[C@H](C)[C@H](CN(C)C(=O)NC2CCCCC2)Oc2ccc(NC(=O)CCN3CCOCC3)cc2CC1=O	-2[16.7 µM]	-1
C[C@@H]1CN([C@@H](C)CO)C(=O)c2cc(N(C)C)ccc2O[C@@H]1CN(C)Cc1ccc(C(F)(F)F)cc1	18[16.7 µM]	3
C[C@@H]1CN([C@@H](C)CO)C(=O)c2cc(NS(=O)(=O)c3ccc(F)cc3)ccc2O[C@@H](C)CCCCO[C@@H]1CN(C)C(=O)Nc1ccccc1	-56[16.7 µM]	-1
COc1ccc(S(=O)(=O)N(C)C[C@@H]2OCCCC[C@@H](C)Oc3ccc(NS(=O)(=O)c4ccccc4)cc3C(=O)N([C@@H](C)CO)C[C@@H]2C)cc1	-12[16.7 µM]	-3
C[C@H]1CN([C@@H](C)CO)C(=O)c2cccc(NC(=O)c3ccncc3)c2O[C@@H]1CN(C)Cc1ccc2c(c1)OCO2	-3[16.7 µM]	-27
C[C@H]1CN([C@@H](C)CO)C(=O)c2cc(C#CCN(C)C)cnc2O[C@H]1CN(C)C(=O)CN1CCOCC1	-6[16.7 µM]	-6
